NPYLR7 agonist: activates Aedes aegypti NPYLR7 receptor. activation, % at 10 µM. HEK293T NPYLR7/Galpha15, GCaMP6s calcium fluorescence. 270,000 compounds, 0.15% hits; in the data active means activation above about 40%;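 further: 0% = vehicle and 100% = reference agonist at the receptor; some compounds past the cut are filed as inactive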
NPYLR7 agonist max-min: second read-out of NPYLR7 agonist, no call of its own (marks repeat the call); activation, %; measured here: Max-Min RFU normalised activation; some inactives read as strong as hits;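 span of the calcium signal over five minutes; 0% = vehicle and 100% = native peptide agonist; compound fluorescence can raise it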
* = called active by the depositor.

canonical_smiles	NPYLR7 agonist max-min	NPYLR7 agonist
CCOc1ccc(NC(=O)C(C)(C)C)cc1S(=O)(=O)N(C)C	2.8	11.9
Cc1nc(CN2CCN(C(=O)Cn3nnnc3CN3CCCC3)CC2)cs1	-8.0	-4.3
CCn1nnc2c(N3CCN(c4cccc(Cl)c4)CC3)ncnc21	4.2	10.1
CN(C)CCNC(=O)[C@@]1(OCc2ccccc2C#N)CC(OCc2c(F)cccc2F)[C@@H]2OC(C)(C)O[C@@H]2C1 (some centres undefined)	4.8	-0.8
O=C1C2SCCN2C(=O)c2ccccc2N1CC(=O)N1CCCC1c1ccc2c(c1)OCO2 (centres undefined)	12.9	0.1
COc1cccc(Cn2cccc2CN(Cc2ccccc2)C(=O)CN(CC(C)C)C(=O)Nc2cccc(F)c2)c1	3.1	-1.5
CCN(CC)C(=O)Oc1ccc2c(ccn2Cc2cc(C)cc(C)c2)c1NC(=O)c1cc(C)on1	9.5	-0.3
COCCOc1nc(-c2cccc(C(F)(F)F)c2)n(-c2ccc(NC(=O)c3ccco3)cc2)n1	6.5	-8.2
COc1ccc(NC(=O)N2CCN(c3nc(C4CC4)nc4ccccc34)CC2)cc1	0.7	-1.7
CON(C)C(=O)CN1C(=O)CC2(C1=O)C(=O)N(CCCOc1ccccc1)c1ccc(F)cc12 (centres undefined)	-12.9	-4.2
CCN1C(=O)C(=Cc2cc(C)n(-c3ccc(F)cc3)c2C)SC1=S	-8.7	-3.4
CC(=O)Nc1cccc(-c2ccc(N(C)C(C)=O)cc2)c1	21.0	27.3
O=C1CC(c2ccccc2O)Cc2nc3nc4ccccc4n3cc21 (centres undefined)	2.4	5.3
CCOC(=O)c1c(C)[nH]c(C(=O)OCC(=O)c2ccc[nH]2)c1C	7.7	1.7
COC(=O)CCCCC(=O)N1CCN(CC(OCc2c(F)cccc2F)c2ccc(Cl)cc2)CC1 (centres undefined)	-1.5	-3.4
Cc1cc(C)c(CN2CCC(CN)C2)c(-n2cccn2)c1 (centres undefined)	1.3	2.2
CS(=O)(=O)N1CCC(NCc2ccc(Cl)c(Cl)c2)CC1	1.2	0.9
CC(Nc1nn2cc(C(C)(C)C)nc2s1)c1ccc2c(c1)CCC(=O)N2 (centres undefined)	3.7	7.5
C=C(C)Cn1c(C2CC(=O)N(c3ccccc3OCC)C2)nc2ccccc21 (centres undefined)	-5.5	-2.1
COCCCN(CC(=O)N(Cc1ccco1)Cc1cccn1C)C(=O)c1ccc(Br)cc1	5.3	-1.8
CCCCN(CCc1nc(-c2cccc(Cl)c2)no1)CC(N)=O	3.8	4.8
CCCCCOc1ccc(N2C(=O)CSC2c2cccnc2)cc1 (centres undefined)	1.8	-2.0
COCCCn1c(C(=O)NCC2COc3ccccc3O2)cc2c(=O)n(C)c(=O)n(C)c21 (centres undefined)	0.1	1.5
CN(Cc1nc2ccccc2n1C(F)F)S(=O)(=O)c1ccc(Br)cc1	3.2	-1.0
CCC(C)NC(=O)c1cc(NC(=O)c2ccccc2Br)ccc1N1CCN(c2ccccc2OC)CC1 (centres undefined)	4.6	-0.1
FC(F)(F)c1ccc(-c2nc3c(OCc4ccccc4)cccn3c2NCc2ccccc2)cc1	25.4	22.8
CCC(C)NC(=O)c1nn(-c2cc(C)cc(C)c2)c(=O)n(Cc2ccc(C(F)(F)F)cc2)c1=O (centres undefined)	3.6	-2.3
C=C(C)Cn1c(=O)c2c(nc3n2CCCN3c2cc(C)cc(C)c2)n(C)c1=O	-3.9	-2.5
Cc1ccccc1C(=O)N1CCN(c2ccc(Cl)cc2)C(=O)C1C (centres undefined)	5.3	-1.7
CCC1CN(C(=O)CCC(=O)Nc2cc(C)ccc2F)CCN1 (centres undefined)	8.3	24.1
Cc1nnc(SCC(=O)N2CCCC(Nc3ccc4c(c3)OCCO4)C2)s1 (centres undefined)	1.4	2.6
N#CC(=Cc1ccco1)c1nc(-c2ccc3c(c2)NC(=O)CO3)cs1	-1.1	4.5
CN(C)S(=O)(=O)N1CCC(CO)(Cc2cccc(F)c2)CC1	14.1	8.3
COCC(=O)N(Cc1csc(COc2ccccc2C(C)C)n1)C(C)C	-0.9	5.7
CC(CC(O)c1ccco1)NC(=O)C1CCOc2ccccc21 (centres undefined)	6.0	10.6
CCCCN(CC(=O)Nc1cc(C(C)(C)C)nn1-c1ccc(OC)cc1)C(=O)Nc1cccc(Br)c1	25.5	16.1
O=C(NC1CCN(Cc2ccccc2)C1)c1cn(Cc2ccccc2Cl)nn1 (centres undefined)	5.5	11.3
Cc1cc(C)nc(SCc2cc(=O)c(OC(=O)c3ccc(Br)cc3)co2)n1	-7.9	-11.8
Cc1ccccc1-n1nc2c(c1NC(=O)c1ccccc1)CS(=O)(=O)C2	-5.1	-3.9
CCC1CCCCN1C(=O)C(C)Sc1nc(N)nc2nc[nH]c12 (centres undefined)	5.8	3.7
O=C(CCc1csc(NC(=O)Nc2cccc(Cl)c2)n1)NCCC1=CCCCC1	-3.1	-0.5
CNC(=O)Cn1nc(-c2cccs2)c2sc(C)nc2c1=O	-1.3	2.2
Fc1cccc(C2Oc3ccccc3C3CC(c4ccc5c(c4)OCCO5)=NN32)c1 (centres undefined)	3.4	3.4
COc1ccc(Cn2ccnc2CN(CCN2CCOCC2)C(=O)c2ccccc2F)cc1	23.0	9.3
COC(=O)CCCNC(=O)Cc1c2c(n(C(C)C)c1C)CC(C)(C)CC2=O	-3.5	5.4
Cn1cccc1-c1cc(C(=O)N2CCC(Cc3ccccc3)CC2)n(-c2ccc(Cl)c(Cl)c2)n1	1.4	-1.3
O=C(c1ccccc1C(F)(F)F)N(Cc1cccc(Oc2ccc(Cl)cc2)c1)Cc1ccco1	-15.0	-5.3
O=C(Nc1nnc(-c2ccc(F)cc2)s1)C1CCCN1S(=O)(=O)c1ccc(Cl)cc1 (centres undefined)	-5.1	-1.7
CC(c1ccc(C(=O)NCCN2CCNC2=O)o1)N1CCCCC1 (centres undefined)	2.4	17.3
CCOC(=O)C1CCN(C(=O)c2ccc(Nc3c(Oc4ccc(OC)cc4)cnn(-c4ccc(F)cc4)c3=O)cc2)CC1	-3.4	-4.2

(listing goes on)
canonical_smiles	NPYLR7 agonist max-min	NPYLR7 agonist
COc1ccc(OC)c(-n2c(C)cn3c4c(=O)[nH]c(=O)n(C)c4nc23)c1	13.6	-0.1
CC1CCC2(CC1)NC(=O)N(NC(=O)CSc1nnc(C3CC3)n1C1CC1)C2=O (centres undefined)	5.1	3.9
CC(C)c1cccc(C(C)C)c1NC(=O)N(CC(=O)N(CCc1ccccc1)Cc1ccco1)C(C)C	-7.0	-8.4
Cc1ccc(C=C2SC(=S)N(Cc3ccccc3)C2=O)o1	-3.4	3.3
Clc1ccc2nc(Cl)c3nnnn3c2c1	33.3	40.0
Cc1cc(N2CCCC(C(=O)c3ccc4c(c3)OCO4)C2)nc(N)n1 (centres undefined)	-12.4	-0.4
O=c1cnnc(SCc2ccc(F)cc2)[nH]1	2.8	3.5
COc1ccc(OC)c(COCC(O)CNC(C)(C)CO)c1 (centres undefined)	24.5	1.1
O=C(Nc1ccc(C(=O)N2CCCC2)cc1)c1ccc2c(c1)OCO2	1.8	-3.1
CC(C)Cc1nc(N2CCCN(C(=O)C(C)C)CC2)c2c(-c3cccc(Oc4ccccc4)c3)noc2n1	9.0	20.6
C=CCN(Cc1nccn1Cc1ccc(Cl)c(Cl)c1)C(=O)C1CCCC1	17.6	6.6
COc1ccc(CCN(C)S(=O)(=O)c2ccc(OC)c(N3CCN(S(=O)(=O)c4ccc(NC(C)=O)cc4)CC3)c2)cc1OC	14.0	25.6
CC1CCc2sc(C(=O)NN=Cc3ccco3)cc2C1 (centres undefined)	2.9	1.2
Cc1ccoc1C(=O)NCC1CN(S(C)(=O)=O)CCO1 (centres undefined)	6.9	15.9
CCCCCNC(=O)CSc1nc(Cl)cc(N2CCN(C/C=C/c3ccccc3)CC2)n1	17.3	16.8
CN(C)C1CCCN(C(=O)c2cc(-c3ccncc3)n[nH]2)CC1 (centres undefined)	-2.4	-1.6
Cc1nc(CCC(=O)Nc2ccccc2C(=O)N2CCCCCC2)n[nH]1	1.7	0.4
O=C1/C(=C/c2ccccc2)CCc2cc(O)ccc21	6.6	8.7
CCC(C)C(=O)NCc1ccc(-c2ncc(-c3ccc(OC)cc3)[nH]2)cc1 (centres undefined)	7.8	-2.3
Cc1nc2ncc3c(=O)n(-c4ccc(Cl)c(C(F)(F)F)c4)ccc3n2n1	2.6	1.9
Cc1ccc(OCc2ccc(F)cc2Br)c(CO)n1	-4.7	-3.5
COc1ccc(-c2onc3c2CCC3)cc1NC(=O)c1cc(C)nn1C	21.4	18.2
CCC(CC)n1nc(C)cc1NC(=O)Cn1cnnn1	-0.4	-0.4
CC1CN(c2cc(Oc3ccccc3F)ncn2)CCN1Cc1cccc(C(F)(F)F)c1 (centres undefined)	29.6	24.2
CCCc1cncnc1N1CCC(=O)N(Cc2ccccc2)C(CC)C1 (centres undefined)	-3.3	-3.4
O=C(Cc1cccs1)Nc1nn2cnnc2s1	0.2	-0.5
Cn1c(=O)c(C(=O)Nc2ccc(Cl)cc2Cl)c(O)c2ccccc21	3.2	5.6
Cc1ccc2nc(CN(C)C(=O)C3CC4(CCNCC4)CN3)[nH]c2c1 (centres undefined)	6.3	17.4
CCn1c(=O)[nH]c(=O)c2c(C(F)(F)F)cc(-c3cccs3)nc21	3.0	1.5
COc1ccc(C(=O)NCC2CCN(c3nc(Cc4cccc(OC)c4)ns3)CC2)cc1	9.5	7.0
Cc1ccc(-n2c(=O)[nH]c3c(C(=O)NCc4ccc(Cl)cc4)cn(C)c3c2=O)cc1	5.7	3.7
O=C(CSc1ccc2ccccc2n1)NNC(=O)c1ccccc1C(=O)O	-6.9	-1.8
CCOc1ccc(NC(=O)c2cn(CC)nc2OCC)cc1	5.6	3.3
O=S(=O)(c1ccccc1)N1N=C(c2ccccc2)CC1c1ccccc1F (centres undefined)	-3.6	-1.2
Cc1cccc(N(C)c2cc(N3CCN(CC(=O)Nc4cc(-c5ccccc5)nn4C)CC3)ncn2)c1	-2.6	-0.8
OC(c1cccc(Cl)c1Cl)C(F)(F)F (centres undefined)	0.2	1.3
Cc1ccccc1CNc1ccc(S(=O)(=O)N2CCN(C)CC2)cc1[N+](=O)[O-]	-3.5	-1.0
Cc1ccccc1C(CC(=O)NCc1ccccn1)c1ccccc1 (centres undefined)	0.7	9.9
N#Cc1ccccc1S(=O)(=O)N1CCN(Cc2ccc(C(F)(F)F)cc2)CC1	3.5	6.2
CCc1cc2c(SC(C)C(C)=O)ncnc2s1 (centres undefined)	12.4	6.8
O=C(NS(=O)(=O)c1ccc(Br)s1)c1ccc(Cl)cc1Cl	-5.6	-2.6
Cc1cccn2c(CC(=O)N[C@@H]3CC[C@@H](N)C3)cnc12	-6.7	-2.1
Cc1ncc(-c2cccc3ccccc23)[nH]1	-3.7	-5.7
CC1=C[C@@H](CN(C)CCC#N)[C@H](C(C)C)C[C@H]1Cc1nnc(-c2cncn2C)o1	-12.6	-4.9
CC(OC(=O)C1CC2CCC1C2)C(=O)Nc1ccc2[nH]c(=O)[nH]c2c1 (centres undefined)	-3.9	-2.8
COc1ccc(OC(F)(F)F)cc1CC1(C)C(=O)Nc2ccc(-c3ccccc3OC)cc21 (centres undefined)	3.4	2.3
Cc1ccc(SCc2csc(Cc3ccc(F)cc3Cl)n2)c(C)c1	-1.9	3.2
Cn1c(=O)[nH]c(=O)c2c1nc(N(CCO)Cc1ccccc1)n2CCCc1ccccc1	-10.2	-9.6
CC(C)N(C(=O)C1CC(=O)N(CC(F)(F)F)C1)c1ccccc1 (centres undefined)	-4.3	-1.9
COc1ccc(C2=C/C(=C3\c4ccccc4-c4ncccc43)C(=O)O2)cc1	-3.1	6.4

(list continues)
canonical_smiles	NPYLR7 agonist max-min	NPYLR7 agonist
C=CCN1CC(c2nc3ccccc3n2CCOc2ccc(Cl)cc2)CC1=O (centres undefined)	4.9	4.5
c1cncc(NCCCNC2CCSC2)c1 (centres undefined)	8.6	13.6
Cc1nc(-c2cccnc2)nc(NC2CCN(c3cnn(C)c3)C2)c1C (centres undefined)	-2.3	1.2
Cc1cccc(N2CCN(C(=O)C34CC5CC(CC(C5)C3)C4)CC2)c1	7.0	3.8
CCOC(=O)c1c(C)cc(O)c(C)c1O	-11.5	-9.1
CC(=O)NCc1ccc(S(=O)(=O)N2CCc3cnccc32)s1	2.0	4.5
COc1ccc(CCN(Cc2ccc(C)s2)C(=O)CN(C(=O)Nc2cc(C(F)(F)F)cc(C(F)(F)F)c2)C2CC2)cc1OC	-10.4	-8.5
NC(=O)C1CC2(NC(=O)NC2=O)c2cc(F)ccc2O1 (centres undefined)	-30.5	-23.7
COCC(=O)n1nc(-c2ccccc2)nc1NCc1ccc(N(C)C)cc1	12.1	20.0
CCOc1ccccc1N1CCN(C(=O)OC)CC1	-4.7	-3.1
CCCc1cnc2c(c1SCC(=O)N(C)c1ccccc1)c(=O)n(C)c(=O)n2C	13.2	13.4
O=C(CCN1C(=O)COc2ccccc21)NCC(=O)Nc1ccccc1Br	7.5	2.0

Not all compounds are listed; the hit share may differ from the screen's.
